High-throughput results deposited in PubChem by National Center for Advancing Translational Sciences (NCATS).
Sfp inh: Sfp phosphopantetheinyl transferase inhibition; Potency, µM, without a hit: max response, negative = inhibition, most hits filed as inhibitors; hit rate 3.5% among 310,000; Biochemical Sfp PPTase activity, qHTS; active means well fitted inhibition curve with a large enough effect; inconclusive means small, poorly fitted or top-dose-only effect, or another doubt; inactive means no such curve, though single readings can be large or run the other way;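 further: the enzyme is Sfp with the accession as filed and its product quenches rhodamine fluorescence; potency means the concentration at half of the fitted maximal effect; 0% = enzyme reaction without inhibitor and -100% = no enzyme wells; top concentration of the series not given in the record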
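Step 1, compound plus 15 nM Sfp-PPTase, 15 min, room temperature. Step 2, add rhodamine-CoA (5 uM) and BHQ-2-YbbR (12.5 uM). Step 3, read 525/598 nm fluorescence at 0 and 30 min.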
ClpP mod: qHTS Assay for Activators of ClpP; Potency, µM (series often up to 57.5 µM), for the others: top-dose activity change, negative = active; hit rate 1.9% among 340,000; ATP-dependent Clp protease proteolytic subunit (Bacillus subtilis (strain 168)), P80244; AID 651965, 2013; purified B. subtilis ClpP, FRET peptide cleavage, 20 min; active = well fitted falling curve with a large enough effect; inconclusive = small, poorly fitted or top-dose-only effect; inactive = no such curve, though single readings can be large or run the other way; further: potency means the concentration at half of the fitted maximal effect; the source files actives as falling curves though it sought activators and does not explain the sign; nearly all actives have a fitted effect of over 65% in size; many hits overshoot -100%
Target sequence (P80244 whole entry, looked up): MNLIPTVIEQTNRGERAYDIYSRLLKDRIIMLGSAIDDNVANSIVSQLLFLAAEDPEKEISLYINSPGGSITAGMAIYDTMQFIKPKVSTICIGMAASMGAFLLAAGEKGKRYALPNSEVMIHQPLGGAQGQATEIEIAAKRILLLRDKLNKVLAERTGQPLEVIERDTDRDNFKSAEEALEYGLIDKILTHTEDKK
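FRET quenching reversal measured ClpP activation: 10 microg/mL B. subtilis ClpP at pH 8 with the FRET-FV decapeptide, read at 430 nm after 320 nm excitation. The 20-min minus 0-min signal was scaled between DMSO/no-enzyme wells and ADEP (5.8 microM final).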
Menin MLL FP FL: menin-MLL binding inhibition, fluorescein peptide; FP activity change, % at 61.4 µM; 290,000 tested, under 10 active; Fluorescence polarization, fluorescein-MLL peptide displacement from menin; inconclusive = falling polarisation curve, or a change in total fluorescence; inactive = total fluorescence flat and polarisation flat or rising; no compound was filed as active; the % refers to the polarisation; negative = inhibition;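 further: % of control where 0% means no effect; inhibitors lower the polarisation; unlabelled MLL peptide was the positive control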
gsp antag: antagonizes gsp, the McCune-Albright syndrome mutation | gsp-mutant cells, cAMP HTRF, 30 min; control for the full effect not named in the record | Potency, µM (doses to about 76.9 µM), without a hit: top-dose activity change, negative = inhibition, usual class: inhibitors | hit rate 0.4% among 340,000 | AID 624288; active = falling curve of any shape with a large fitted effect; inconclusive = falling curve, mostly with a smaller effect; inactive = flat or rising curve; cell line not stated here;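 further: intracellular cAMP measured with PDE inhibitor Ro 20-1724 present during compound exposure; potency means the concentration at half of the fitted maximal effect; on the % scale 0 is the no-effect control and ±100 the full control effect; nearly all actives have a fitted effect of over 65% in size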
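G418-selected cells were plated in DMEM/10% FBS for 16-24 h at 37C, then treated with compounds plus the PDE inhibitor […] (300 uM solution added) for 30 min at 37C. Intracellular cAMP was measured by HTRF after 30 min lysis at room temperature.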
TRPML1 inh: human mucolipin-1 channel inhibition; Q9GZU1; TRPML1-inducible cells, Ca2+ dye fluorescence, FDSS; hits give low values; inhibition of EC80 agonist-evoked calcium signal; activity change, negative = inhibition, % (no concentration beside the values); hit rate 0.02% among 390,000; AID 624415; in the data active means activity change below about -50%; inconclusive means about -30% to -50%; inactive means above about -30%;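 further: stimulus is agonist 54-4 at its EC80 concentration; on the % scale 0 is the no-effect control and ±100 the full control effect; compound concentration not given in the record; the text of the record puts the active cut at -80%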
Target sequence (Q9GZU1 whole entry, looked up): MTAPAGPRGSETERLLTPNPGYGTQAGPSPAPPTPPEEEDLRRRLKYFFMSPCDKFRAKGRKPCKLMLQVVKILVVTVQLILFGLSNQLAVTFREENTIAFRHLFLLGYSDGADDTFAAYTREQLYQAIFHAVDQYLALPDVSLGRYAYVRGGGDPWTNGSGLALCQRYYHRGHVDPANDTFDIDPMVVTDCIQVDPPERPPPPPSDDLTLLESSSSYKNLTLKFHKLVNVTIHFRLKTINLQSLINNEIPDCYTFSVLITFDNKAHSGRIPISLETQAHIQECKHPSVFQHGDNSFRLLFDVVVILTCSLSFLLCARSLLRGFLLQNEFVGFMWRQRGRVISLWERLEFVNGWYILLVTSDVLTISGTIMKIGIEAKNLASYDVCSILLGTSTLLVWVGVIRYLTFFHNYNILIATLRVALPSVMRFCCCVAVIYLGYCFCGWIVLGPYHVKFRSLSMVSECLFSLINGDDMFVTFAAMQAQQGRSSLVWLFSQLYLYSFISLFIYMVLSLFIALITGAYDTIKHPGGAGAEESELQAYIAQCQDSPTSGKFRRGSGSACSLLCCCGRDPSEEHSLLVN
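Calcium fluorescence in TRPML1-DL cells induced overnight with Tet: a 110 s read after compound pin addition, then a 110 s antagonist read after challenge with 54-4 at 4 uM final (EC80).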
gsp agonist: activates gsp, the McCune-Albright syndrome mutation. hit rate 0.13% among 340,000. Potency, µM (series often up to 76.9 µM), for the others: at the top dose activation (cAMP increase), hits mostly activators. gsp mutant cells, cAMP HTRF, 30 min; control for the full effect not named in the record; active = well fitted activation curve with a large enough effect; inconclusive = small, poorly fitted or top-dose-only effect, or another doubt; inactive = no such curve, though single readings can be large or run the other way; cell line not stated here;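 further: phosphodiesterase inhibitor Ro 20-1724 added with compounds to block cAMP breakdown; potency means the concentration at half of the fitted maximal effect; nearly all actives have a fitted effect of over 60% in size; about a fifth of the inactives were tested at one dose only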
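Cells stably selected in G418 were plated at 2000/well, grown 16-24 hr, then given compounds in DMSO with the PDE inhibitor […] (300 uM solution added) for 30 min at 37C; cAMP was read by HTRF.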
TRPV1 potentiator: enhances activation of the human vanilloid receptor TRPV1. Q8NER1. TRPV1-expressing cells, Fluo-8 calcium influx, capsaicin EC20 potentiation; host cell line not named in the record; control for the full effect not named in the record. potentiation, % at 8.33 µM. hit rate 0.02% among 320,000. AID 540277; active means potentiation above 80%; inconclusive means 30% to 80%; inactive means below 30%; further: 0% is about no effect
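TRPV1-expressing cells were cultured overnight at 35.5C and loaded with Fluo-8 calcium dye for 40 to 90 min at room temperature. After a 10 s baseline, compound was added and calcium influx was read kinetically for 3 min (ex 480/em 520 nm).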
Starred values were filed as active, the others as inactive; ? = inconclusive; . = no result given; & = joins results of further samples; [ ] = dose if it differs, or a comment. Hits appear at their usual frequency; 4.9% or so of the library scored in one or more.

SMILES,TRPV1 potentiator,TRPML1 inh,Sfp inh,gsp agonist,gsp antag,ClpP mod,Menin MLL FP FL
O=C(Nc1ccccc1Cl)N1CCN(c2ccc3nnc(-c4ccc(F)cc4)n3n2)CC1,-9,-5,6%,?,?,0.3%,-0.2
CC(Oc1cc2oc(=O)c3c(c2cc1Cl)CCC3)C(=O)NCc1cccnc1 (centres undefined),1,19,13%,?,-18%,4.0%,.
Cc1ccc(C(=O)NCCNC(=O)c2cnccn2)cc1,8,-4,12%,18%[15.4 µM],2%,.,0.4
CCN(CC)S(=O)(=O)c1ccc(C(=O)N2CCN=C2SC)cc1,-8,10,7%,-15%,6%,-1.5%,-2.2
CCN(CC)S(=O)(=O)c1ccc(C(=O)NNc2nc(-c3ccccc3)c3cc(Br)ccc3n2)cc1,12,19,23%,-39%[inhibitor],-8%,0.5%,1.9
COc1ccc(C(=O)NC(=S)NNC(=O)c2ccc(NC(C)=O)cc2)cc1Br,-3,13,9%,-1%[15.4 µM],?,.,-2.9
Cn1cc(S(=O)(=O)NC2CCCCCC2)c(=O)n(C)c1=O,-5,?,5%,21%,6%,-2.1%,.
CC(NC(=O)c1cccs1)c1ccc2c(c1)OCO2 (centres undefined),-4,6,13%,6%,-8%,-0.8%,3.7
CC1CCCC(C)N1NC(=O)Cc1ccccc1 (centres undefined),25,3,15%,-18%[15.4 µM],10%,.,0.1
CCN(CC(=O)Nc1ccc(C(C)=O)cc1)CC(=O)Nc1ccc2c(c1)OCCO2,.,-17,.,10%,-7%,.,.

More entries.
SMILES,TRPV1 potentiator,TRPML1 inh,Sfp inh,gsp agonist,gsp antag,ClpP mod,Menin MLL FP FL
C/C(=N\Nc1nnc2c3ccccc3n(C)c2n1)c1ccc(C)o1,8,-1,-3%,7%[15.4 µM],5%,-29%,7.1
COc1ccc(NS(=O)(=O)c2ccc(NS(=O)(=O)c3cccs3)cc2)cc1,27,1,-15%,16%,-26%,.,4.8
CC(=O)Nc1ccc(S(=O)(=O)N(Cc2cccnc2)Cc2cc3ccccc3[nH]c2=O)cc1,7,-5,3%,4%,-4%,?,-0.3
CCCCN(C(=O)CSc1nnc(-c2ccc(OC)cc2)n1CC)c1c(N)n(Cc2ccccc2)c(=O)[nH]c1=O,0,1,16%,0%[15.4 µM],-6%,.,4.1
COc1ccc(NC(=S)N2CCC(NC(=O)c3ccco3)CC2)cc1,4,12,32%[activator],4%,8%,.,0.4
Cc1nc(Cl)c(N=Cc2cccc([N+](=O)[O-])c2)c(Cl)n1,1,-6,11%,?,17%,.,-5.3
CC(C)C(NC(=O)CNC(=O)OC(C)(C)C)C(=O)NCc1ccccc1 (centres undefined),-9,16,8%,8%,6%,1.5%,7.1
Cc1csc(NC(=O)C2CCCN(S(=O)(=O)c3cnc[nH]3)C2)n1 (centres undefined),-5,19,-11%,1%,9%,1.1%,0.7
N#CC1=C(N)NC(=S)C(C(N)=O)C1c1ccc([N+](=O)[O-])cc1 (centres undefined),4,2,1µM*,-10%[15.4 µM],18%,.,-0.7
CC(c1ccccc1)N1C(=O)C2C3C=CC(C4CC34)C2C1=O (centres undefined),7,42,16%,-7%[15.4 µM],6%,.,-1.5

(continued)
SMILES,TRPV1 potentiator,TRPML1 inh,Sfp inh,gsp agonist,gsp antag,ClpP mod,Menin MLL FP FL
COc1ccc(C2/C(=C(\O)c3ccc4c(c3)OCCO4)C(=O)C(=O)N2Cc2ccco2)c(OC)c1 (centres undefined),11,-4,-23%,?,-3%,-0.1%,-1.4
COc1ccc(C/C(C)=N\NC(=O)c2c[nH]c3ccccc23)cc1OC,5,-1,-1%,-3%,-2%,-2.3%,5.9
COc1ccc(C(=O)Nc2nnc(-c3ccccc3)s2)cc1,-3,19,0%,22%[15.4 µM],-9%,0.3%,-4.0
Cc1cccc(NC(=O)CSCC(=O)N2CCN(C(=O)c3ccco3)CC2)c1,3,-1,.,-3%,-15%,-9.1%,.
O=C(COC(=O)c1cc(S(=O)(=O)N2CCOCC2)ccc1F)Nc1cc([N+](=O)[O-])ccc1F,.,15,.,20%[15.4 µM],-14%,-1.0%,.
CCOc1ccc(Cn2ccnc2)cc1[N+](=O)[O-],-10,-5,12%,-37%[inhibitor],3%,-1.3%,2.9
CC12CCC(=O)N1C(C(=O)Nc1nc(-c3ccccc3)cs1)CS2 (centres undefined),-7,4,.,?,8%,-2.0%,.
CCc1ccc2nc(Nc3ccc(OC)cc3OC)c(C#N)cc2c1,-4,51,0%,?,6%,.,?
C#CCOCCOCCOCCNc1nc(N2CCN(C(=O)[C@H]([C@@H](C)CC)n3cc(CCCCN)nn3)CC2)nc(N2CCN(C(=O)[C@H]([C@@H](C)CC)n3cc(CCCN=C(N)N)nn3)CC2)n1,-22,9,.,.,3%,0.7%,.
CN(C)C(=O)Nc1ccccc1CC[N+](=O)[O-],-1,17,12%,1%[15.4 µM],8%,.,0.7

Next compounds.
SMILES,TRPV1 potentiator,TRPML1 inh,Sfp inh,gsp agonist,gsp antag,ClpP mod,Menin MLL FP FL
COCc1[nH][nH]c(=O)c1C=Nc1ccc(C(F)(F)F)cc1,7,32,10%,-12%,3%,-1.5%,-3.2
Cc1nn(Cc2ccc(Cl)cc2)c(C)c1NC(=O)c1noc2c1CCCCC2,3,-8,-5%,24%,?,0.2%,-0.9
CC(=O)Nc1ccc(NC(=O)COC(=O)c2ccc(C)s2)cc1,-10,-7,4%,-25%,-3%,-1.1%,-0.2
Cc1ccc(-n2nnnc2SCC(=O)Nc2ccc3c(c2)COC3=O)cc1C,-2,8,-1%,-16%,23%,-8.2%,-0.7
COc1ccc(C2C(=O)NN=C2C)cc1 (centres undefined),.,12,.,15%,-1%,-0.7%,.
CCOC(=O)c1c(NC(=O)Cn2nnc3ccccc32)sc2c1CCC(C)C2 (centres undefined),3,34,9%,-29%,-16%,-21%,2.5
Cc1ccccc1C(=O)NCC(=O)Nc1ccccc1C(F)(F)F,2,41,-6%,23%,11%,.,4.8
CSc1ccccc1-n1nnnc1SCC(=O)Nc1cc(C)ccc1C,7,13,7%,-5%,-19%,0.3%,1.2
N#Cc1ccc(N2C(=O)[C@@H]3C(C(=O)C(c4ccccc4)c4ccccc4)=NN[C@@H]3C2=O)cc1,10,-6,19%,-29%,-7%,0.2%,.
COc1ccc(C(=O)Nc2ccc(N3CCN(C(=O)c4cccs4)CC3)cc2)cc1Br,26,-16,-2%,23%,-6%,-8.5%,.

Other structures.
SMILES,TRPV1 potentiator,TRPML1 inh,Sfp inh,gsp agonist,gsp antag,ClpP mod,Menin MLL FP FL
Cc1ccc(C)c(S(=O)(=O)N2CCCCC2CCNC(=O)C(=O)NCc2ccccn2)c1 (centres undefined),9,0,.,8%,-25%,-2.7%,.
CNC(=O)COC(=O)c1ccc(NS(=O)(=O)c2ccc3c(c2)OCCO3)cc1,7,8,4%,3%[15.4 µM],3%,.,0.0
Cc1ccccc1N1CC(C(=O)Nc2nnc(SCc3cccnc3)s2)CC1=O (centres undefined),6,-7,-3%,?,-1%,0.2%,3.7
COc1ccc(CN2C(=O)Cc3c2nc(N)c2c(N)nc(N4CCOCC4)c(C#N)c32)cc1,9,3,-24%,?,-14%,8.5%,-9.8
COc1ccccc1OC(=O)C1CC(=O)N(c2ccc(Cl)cc2)C1 (centres undefined),-1,25,-16%,-16%,-21%,-0.4%,3.7
O=C(CCC(=O)N1CCN(S(=O)(=O)c2ccc([N+](=O)[O-])cc2)CC1)N1CCOCC1,.,-6,.,4%,14%,4.3%,.
Cc1cc(C(=O)NCc2cccnc2)n(-c2ccccc2)n1,15,6,16%,24%,-1%,-0.8%,-1.5
COC(=O)c1ccc(OC)c(CSc2nnc(-c3ccc(C)cc3)o2)c1,.,-17,.,-18%[15.4 µM],-1%,.,.
Cn1c(=O)n(C)c2cc(/C=C3/NC(=O)N(Cc4ccccc4)C3=O)ccc21,2,10,15%,24%,13%,-5.3%,1.3
Fc1cccc(NC(=S)NNc2c3ccccc3nc3ccccc23)c1,3,1,-9%,6%[15.4 µM],?,.,4.3

(more compounds)
SMILES,TRPV1 potentiator,TRPML1 inh,Sfp inh,gsp agonist,gsp antag,ClpP mod,Menin MLL FP FL
c1ccc(CSc2ccc(-c3ccccn3)nn2)nc1,-19,6,-24%,19%[15.4 µM],6%,.,1.2
Cc1ccc(NC(=O)c2ccc(S(=O)(=O)N3CCC(C)CC3)cc2)nc1,3,-10,.,-2%,1%,2.9%,.
O=c1ccc(-c2ccc(S(=O)(=O)NCC3CCN(Cc4cccc(F)c4)CC3)s2)n[nH]1,?,4,0%,43%,5%,-15%,.
COc1ccc(N(C(=O)CNC(=O)c2ccco2)C(C(=O)NC2CCCCC2)c2ccco2)cc1 (centres undefined),-3,-2,13%,0%,2%,0.4%,1.1
CNC(=O)C(C)c1ncc(C(F)(F)F)cc1Cl (centres undefined),-25,8,-23%,-10%[15.4 µM],5%,.,-0.6
N#CC1=C(N)N2C(=C(C#N)C13CCCCC3)SC1CCCCC12O (centres undefined),4,-7,-7%,-5%,-4%,-0.7%,3.1
O=C(O)C1CSC2c3ccccc3C(=O)N12 (centres undefined),19,-5,15%,-35%,-7%,0.2%,1.3
CCCCN(C)CCN1C(=O)C2C(C(=O)Nc3ccc(OC)cc3)C3C=CC2(O3)C1C(=O)NC1CCCCC1 (centres undefined),10,7,4%,13%[15.4 µM],6%,.,-4.1
COCCNC(=O)CSc1nc(-c2ccccc2)c(-c2ccccc2)o1,-19,-1,-17%,?,-14%,-19%,-2.4
CC1CC1C(=O)NCCc1ccc(Cl)cc1 (centres undefined),-11,-9,15%,-4%,1%,-4.6%,-1.8
COc1cccc(C(=O)N/N=C/c2ccc(OC)c(COc3ccccc3C(N)=O)c2)c1,-17,12,13%,-14%,-23%,-12%,.
COc1ccc(S[C@@H](CCN2CC[C@H](O)CCC2=O)c2ccccc2)cc1,-4,-9,.,14%,0%,1.5%&-1.5%,.
Cc1cccc(C)c1NC(=O)c1ccc(OCc2c(C)noc2C)cc1,.,-2,.,-4%,-7%,2.0%,.
